Bioassay records: PubChem, ICCB-Longwood Screening Facility, Harvard Medical School
GIV Gai3 FP: blocks GIV peptide binding to rat Galpha-i3 | Galpha-i3/FITC-GIV peptide fluorescence polarization, 90 min; stronger effect = lower value; scaled: aluminum fluoride 0%, vehicle 100% | hit rate 0.42% among 210,000 | percent of control (FP), % (test concentration not listed) | P08753 | AID 1224905;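 active = replicate mean at 85% of control or lower, very high polarization wells dropped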;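 note: wells of about 15 µL received 100 nL stock; the first replicate is given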
Target sequence (P08753 whole entry, looked up): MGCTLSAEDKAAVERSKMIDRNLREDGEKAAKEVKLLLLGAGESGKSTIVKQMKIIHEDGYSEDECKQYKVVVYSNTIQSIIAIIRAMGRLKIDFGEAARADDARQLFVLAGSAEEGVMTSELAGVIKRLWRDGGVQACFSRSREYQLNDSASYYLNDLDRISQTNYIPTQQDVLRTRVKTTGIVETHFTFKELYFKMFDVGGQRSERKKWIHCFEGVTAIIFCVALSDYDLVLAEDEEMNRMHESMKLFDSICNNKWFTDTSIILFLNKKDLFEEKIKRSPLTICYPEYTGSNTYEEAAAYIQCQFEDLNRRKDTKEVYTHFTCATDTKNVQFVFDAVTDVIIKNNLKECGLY
The depositor's hits bear a star. A portion of the library; rates above refer to the full screens.

GIV Gai3 FP	Molecule
112.2	CC(C)C12CN3CC(C(C)C)(CN(C1)C3c1c(O)ccc3ccccc13)C2=O (configuration not stated)
102.7	Cc1ccc(-c2noc(-c3ccccc3S(=O)(=O)N3CCC(C)CC3)n2)cc1
109.0	O=S(=O)(NCCc1n[nH]c(Cc2ccccc2)n1)c1cccc(F)c1
107.5	COc1ccc(NC(=O)c2nnc(C3CCN(C(=O)Nc4ccc(Cl)cc4)CC3)s2)cc1
109.5	CCOc1ccc(NC(=O)CSc2nnc3c4sc(N5CCCC5)nc4ncn23)cc1
108.9	CCOC(=O)C1=C(N)n2c(s/c(=C\c3cccc(Br)c3)c2=O)=C(C#N)C1c1cccc(Br)c1 (configuration not stated)
110.6	CC(C)(C)C1CCc2oc3ccc(NS(=O)(=O)c4ccc(F)cc4)cc3c2C1 (configuration not stated)
105.8	Cc1nn(-c2ccc(-c3ccccc3)nn2)c(C)c1S(=O)(=O)N1CCC(C)CC1

Shown tab-delimited: entries from further up.
smiles	GIV Gai3 FP
CC(C)C12CN3CC(C(C)C)(CN(C1)C3c1c(O)ccc3ccccc13)C2=O (configuration not stated)	112.2
Cc1ccc(-c2noc(-c3ccccc3S(=O)(=O)N3CCC(C)CC3)n2)cc1	102.7
O=S(=O)(NCCc1n[nH]c(Cc2ccccc2)n1)c1cccc(F)c1	109.0
COc1ccc(NC(=O)c2nnc(C3CCN(C(=O)Nc4ccc(Cl)cc4)CC3)s2)cc1	107.5
CCOc1ccc(NC(=O)CSc2nnc3c4sc(N5CCCC5)nc4ncn23)cc1	109.5
CCOC(=O)C1=C(N)n2c(s/c(=C\c3cccc(Br)c3)c2=O)=C(C#N)C1c1cccc(Br)c1 (configuration not stated)	108.9

Additional records.
GIV Gai3 FP	Molecule
109.7	Cc1ccc2c(c1)NC(C)(C)c1sn(-c3ccc(C(C)C)cc3)c(=S)c1-2
108.2	S=C1NC(c2ccc(Br)cc2)=CC(c2cccs2)N1 (configuration not stated)
111.7	CCCCN1C2=C(C(=O)CC(C)(C)C2)C(c2ccccc2)C2=C1c1ccccc1C2=O (configuration not stated)
102.4	Cc1nc(-c2csc(S(=O)(=O)Nc3cc(F)ccc3F)c2)no1
96.6	COc1ccc(C2C3=C(CC(C)(C)CC3=O)OC3=C2C(=O)CC(C)(C)C3)cc1CN1C(=O)c2ccccc2C1=O
98.6	COc1cccc(N2CCN(S(=O)(=O)c3cc(-c4cc(C(F)(F)F)[nH]n4)sc3C)CC2)c1
106.2	CCc1nc(-c2csc(S(=O)(=O)N3CCCC(C(=O)Nc4nccs4)C3)c2)no1 (configuration not stated)
108.5	CCOC(=O)c1c(NC(=O)C(C)Sc2nnc3[nH]c(=O)cc(C)n23)sc2c1CCC2 (configuration not stated)
112.4	CCOc1cc(C2N(c3ccc(C)cc3)CCN2c2ccc(C)cc2)cc(Br)c1O
105.3	O=C(NCCCN1CCCC1=O)c1ccc2ccnc(N3CCN(c4ccc(F)cc4)CC3)c2c1
102.7	Cn1nc(-c2nnc(-c3ccc(F)cc3)o2)c2c1CCN(S(C)(=O)=O)C2
107.0	COc1cccc(/C=c2/sc3n(c2=O)C(N)=C(C#N)C(c2cccc(OC)c2)C=3C#N)c1 (configuration not stated)
106.0	CCOc1ccc(CCN2C(=O)CCC2(C)C(=O)NCc2ccc(C)cc2)cc1 (configuration not stated)
105.7	O=c1/c(=C/c2cn(Cc3ccccc3F)c3ccccc23)sc2nc3ccccc3n12
108.5	C=CCOc1ccc2c(c1)C(=O)c1cc(OCC=C)ccc1-2
98.7	CS(=O)(=O)N1CCC(c2nnc(C(=O)Nc3ccccc3)s2)CC1
101.1	Cn1cnc2c1c(=O)n(Cc1cccc(Br)c1)c(=O)n2C
106.3	CC1(C)CC(=O)C2=C(C1)c1c(ccc3ccccc13)NC2c1ccc(-c2ccccc2F)o1 (configuration not stated)
94.8	Nc1c(C(=O)Nc2ccccc2)sc2nc3c(c(-c4ccco4)c12)CCC3
96.0	CCCSc1nc2ccccc2n2nnnc12
95.3	O=S(=O)(Nc1cccn2cnnc12)c1ccc2c(c1)OCCO2
110.1	CC(=O)Nc1ccc(N2C(=O)/C(=C/c3ccc(Cl)cc3)C=C2c2ccccc2)cc1
118.2	CCOc1ccc(S(=O)(=O)N2c3cccc4cccc(c34)S2(=O)=O)c([N+](=O)[O-])c1
105.4	Clc1ccc(Nc2nc(NCCN3CCOCC3)nc(N3CCOCC3)n2)cc1
104.2	Cc1ccc(-c2csc(Cc3nc(-c4ccc5c(c4)OCO5)no3)n2)c(C)c1
116.5	CC1(C)CC(=O)C2=C(C1)N(c1ccccc1)C(=O)CC2c1ccc([N+](=O)[O-])cc1 (configuration not stated)
114.9	COc1cccc2cc(-c3csc(NC(=O)CCC(=O)NC4CCCC4)n3)c(=O)oc12
97.1	O=C(Nc1cnc(N2CCNCC2)c(C(=O)N2CCC(Cc3ccccc3)CC2)c1)c1ccccc1
108.1	COc1cc(OC)c(C2C=C(c3cccc(Br)c3)Nc3nc4ccccc4n32)cc1OC (configuration not stated)
101.0	Cc1ccc(-n2nnnc2CNC(=O)CC2CCCCC2)cc1C
109.0	Brc1ccc(-c2nn3c(-c4ccccc4)cn4c3c2CCCC4)cc1
107.5	CC(=O)C1=NN(c2ccc(C)cc2)C(c2c[nH]c3ccccc23)N1C1CCCCC1 (configuration not stated)
112.2	Cc1ccc(Nc2ccn(-c3nc(-c4ccccc4)oc3-c3ccccc3)c(=O)n2)cc1
102.1	COc1ccc(C2(O)CN(c3ccc(Cl)cc3)C3=[N+]2CCCS3)cc1OC (configuration not stated)
113.2	COCCNC(=O)c1ccc(NCCc2ccc(Cl)cc2)c(S(=O)(=O)Nc2cccc(C(F)(F)F)c2)c1
100.7	CCC(C)NC(=O)CSc1ccc(-n2nc3c(c2C)CCC3)nn1 (configuration not stated)
112.9	Oc1ccc(-c2nc(-c3ccc4sc5ccccc5c4c3)c(-c3ccccc3)[nH]2)cc1O
110.8	CCC(CC)C(=O)Nc1cc(Cl)ccc1OCc1cc(=O)n2cc(C)sc2n1
96.2	CCOc1c(Br)cc(C2Nc3ccc(OC)cc3[C@H]3OCCC[C@@H]23)cc1OC (some centres not stated)
107.2	CCOC(=O)C1=C(c2ccccc2)N=C2SCC(=O)N2C1c1ccc(F)cc1 (configuration not stated)
109.1	COc1ccc(-c2cc(C(F)(F)F)n3ncc(C(=O)NCCc4c[nH]c5ccccc45)c3n2)cc1OC
106.0	CCOC(=O)c1c(NC(=O)C(C)n2c(-n3nc(C)cc3C)nc(C)c(C)c2=O)sc2c1CCC2 (configuration not stated)
103.9	COc1ccc(N2CCN(C(=O)c3cccnc3SCc3ccc(Br)cc3)CC2)cc1
103.5	CCOc1cc(C2C(C(=O)OC)=CN(Cc3ccc(Cl)cc3)C=C2C(=O)OC)cc(Br)c1O
119.1	CCCS(=O)(=O)c1c(S(=O)(=O)CCC)c2ccc(C(N)=O)cn2c1C(=O)c1ccc(OC)cc1
105.4	CCn1cccc1-c1nc(C)c(C(=O)Nc2cc(C)cc(C)c2)s1
109.1	Cc1cc2[nH]c(=O)[nH]c2cc1S(=O)(=O)NC1CCCC1
102.5	CC(=O)C1=NN(c2ccc([N+](=O)[O-])cc2)C2(S1)c1ccccc1C(c1ccc(Cl)cc1)=NN2c1ccccc1 (configuration not stated)
104.4	CN(C)CCN(Cc1ccccc1)c1ncnc2onc(-c3cccc(Cl)c3)c12
101.5	C=CCNC(=O)C1CCCN1C(=O)c1ccc(NS(=O)(=O)c2ccc(C3CCCCC3)cc2)cc1 (configuration not stated)
109.0	O=c1cc(CSc2nc(NCc3ccc4c(c3)OCO4)c3ccccc3n2)nc2ccccn12
111.8	COC(=O)C(Cc1ccccc1)NC(=O)c1cc2c(n(-c3ccccc3)c1=O)CC(C)(C)CC2=O (configuration not stated)
102.3	COc1cccc(NC(=O)c2sc3ncnc(N4CCOCC4)c3c2C)c1
106.4	Cc1cc(NC(=O)CSc2nc3c(sc(=S)n3Cc3ccco3)c(=O)n2-c2ccc(F)cc2)no1
103.5	CCc1nnc(-c2csc(S(=O)(=O)N3CCOCC3)c2)o1
98.8	CCC1C/C(=C\c2ccc(Br)cc2)C(=O)/C(=C/c2ccc(Br)cc2)C1 (configuration not stated)

More entries
GIV Gai3 FP	Molecule
117.9	CCOC(=O)c1c(N2C(N)=C(C#N)C(c3cccnc3)C3=C2CCCC3=O)sc2c1CCCC2 (configuration not stated)
105.6	COc1cc(C2Nc3ccccc3C(c3ccccc3)(c3ccccc3)O2)ccc1O (configuration not stated)
110.2	O=C(CSc1nc2cc(C(=O)NCc3ccco3)ccc2c(=O)n1-c1ccc(F)cc1)c1ccccc1
141.7	COc1cc(/C=c2\sc3n(c2=O)NC2(c4ccccc4)N(C)C(=O)N(C)C2(c2ccccc2)N=3)cc(Br)c1O (configuration not stated)
107.1	COc1ccc(Cn2nnc3cc(C(=O)NCc4cccc(Cl)c4)ccc32)cc1
99.7	O=C(Cn1nc(C(=O)Nc2ccccc2)ccc1=O)Nc1ccccc1
107.6	CCOc1ccccc1NC(=O)c1ccc(F)c(S(=O)(=O)N2CCN(c3cc(C)ccc3C)CC2)c1
103.3	C=CCN1C(=O)C(=O)/C(=C(/O)c2ccc(Br)cc2)C1c1cccc(OC)c1 (configuration not stated)
102.5	O=C(NCC1CCCCC1)C1CCN(c2cnc(N3CCCCC3)nc2)CC1
102.3	CC1(C)CC(=O)C2=C(C1)Nc1ccccc1N(CC(=O)NCc1cccnc1)C2c1ccccc1 (configuration not stated)
102.0	Cc1cc2[nH]c(C(=O)NCCCN3CCOCC3)c(CN3CCCCC3)c2s1
111.0	COc1ccc(NC(=O)c2ccc(N3CC4CC(C3)c3cccc(=O)n3C4)c(NC(=O)c3cccs3)c2)cc1Cl (configuration not stated)
99.9	Cc1cc(NS(=O)(=O)c2cc(-c3nc(C)c(C(=O)N4CCC(C)CC4)s3)n(C)c2C)no1
107.4	Cc1nn(C)c2ncc(C(=O)NCCC3=CCCCC3)c(NCc3ccccc3)c12
104.8	COC(=O)c1ccccc1NC(=O)Cn1c(SCc2ccccc2)nc2ccccc21
105.2	CCc1cc(C2CCCN2C(=O)Nc2ccc(Br)cc2F)on1 (configuration not stated)
99.2	CCCc1cc(C2CCCN2Cc2ccc(Cl)cc2)no1 (configuration not stated)
110.1	CCN1C(C)=C(C)S/C1=C1\SC(=S)N(N)C1=O
102.9	CC(C)OCCCNC(=O)C1CCCN(c2ncnc3c2oc2ccccc23)C1 (configuration not stated)
113.2	O=C1N=C2N(CCN3CCCCC3)c3ccccc3N2/C1=C/c1ccc([N+](=O)[O-])cc1
104.8	O=C(Nc1ccc(F)c(Cl)c1)N1CCCCCC1c1cccs1 (configuration not stated)
103.1	Cc1ccc(NC(=O)c2sc3ncnc(N4CCOCC4)c3c2C)cc1F
114.0	O=C(Cn1c(=O)n(C2CC2)c(=O)c2nscc21)NCCC1=CCCCC1
94.3	CN(C)c1ccc(N2C=C(C#N)S(=O)(=O)c3ccc(F)cc32)cc1
104.3	Cc1ccc2c(c1)NC(=O)c1cc(S(=O)(=O)N3CCCC3)c(Cl)cc1O2
103.5	CCOC(=O)c1nnn(-c2nonc2N)c1CN1CCN(c2ccccn2)CC1
104.5	CC(C)(C)C(O)CN1C2=NCCN2c2ccccc21 (configuration not stated)
103.3	CCOC(=O)c1c(NC(=O)CSc2nnc(CNC(=O)c3ccc([N+](=O)[O-])cc3)n2C)sc2c1CCCCC2
111.3	CC(=O)Nc1ccc(-c2cc(C(=O)N3CCCC3)c3cc(C)ccc3n2)cc1
114.1	COc1ccc2c(c1)-c1cc(Cl)ccc1S(=O)(=O)N2S(=O)(=O)c1ccccc1
101.8	Cc1nc2c(nc(SCc3nc(-c4cccc(Br)c4)oc3C)n2C)c(=O)[nH]1
105.6	O=C(c1ccc2ccnc(N3CCN(c4ccccc4F)CC3)c2c1)N1CCN(c2ccccn2)CC1

Five entries drawn at random from those above, as already listed:
GIV Gai3 FP	Molecule
101.8	Cc1nc2c(nc(SCc3nc(-c4cccc(Br)c4)oc3C)n2C)c(=O)[nH]1
111.3	CC(=O)Nc1ccc(-c2cc(C(=O)N3CCCC3)c3cc(C)ccc3n2)cc1
104.3	Cc1ccc2c(c1)NC(=O)c1cc(S(=O)(=O)N3CCCC3)c(Cl)cc1O2
103.5	CCOC(=O)c1nnn(-c2nonc2N)c1CN1CCN(c2ccccn2)CC1
105.6	O=C(c1ccc2ccnc(N3CCN(c4ccccc4F)CC3)c2c1)N1CCN(c2ccccn2)CC1

Next entries.
GIV Gai3 FP	Molecule
105.4	COc1ccc(N2CCN(c3nccc4ccc(C(=O)N5CCCC5)cc34)CC2)cc1
187.5	CCOc1cc(/C=C2\SC(=N)N(c3ccc(F)cc3)C2=O)cc(Cl)c1O
102.1	CCc1ccc(S(=O)(=O)c2cnc(N3CCN(c4cc(C)ccc4C)CC3)nc2N)cc1
72.2*	Cc1cc2nc3c(=O)n(Cc4ccccc4)c(=O)[nH]c3nc2cc1N
103.6	O=C1CN(Cc2ccccc2Cl)S(=O)(=O)c2ccccc2N1Cc1ccc(Cl)cc1
91.5	O=C(CC1CCCC1)NC1CCCN(c2cc(N3CCCC3)ncn2)C1 (configuration not stated)
116.6	Cc1sc2nc(-c3ccccc3Cl)n(CC(=O)c3ccc(Br)cc3)c(=O)c2c1C
101.6	COc1cccc(Cc2nc3ccccc3nc2SCC(=O)NCC2CCCO2)c1 (configuration not stated)
109.9	COc1ccc(N2CCN(c3ncnc4sc(C(=O)NCc5ccc(Cl)cc5)c(C)c34)CC2)cc1
106.2	Cc1csc(-c2cc(S(=O)(=O)N3CCN(c4ccccc4)CC3)c(C)s2)n1
115.8	O=S(=O)(c1ccc(Br)cc1Br)n1nnc2ccccc21
101.9	COc1ccccc1C1Nc2ccc(Br)cc2[C@H]2OCCC[C@@H]12 (some centres not stated)
164.3	CCCc1cc(C2CCCN2Cc2ccc(O)c(OCC)c2)no1 (configuration not stated)
107.7	Cc1cc(C)n2ncc(-c3ccc(C)c(S(=O)(=O)NCc4ccc(F)cc4Cl)c3)c2n1
109.5	COc1ccc(CCNC(=O)CSc2nc3[nH]ncc3c(=O)n2-c2ccc(C)c(Cl)c2)cc1OC
107.0	O=C(CSc1nc2ccccc2[nH]1)Nc1cc(C(F)(F)F)cc(C(F)(F)F)c1
106.7	CN(c1ccc(Br)cc1)S(=O)(=O)c1ccc2[nH]cc(C(=O)N3CCN(c4ccccc4)CC3)c(=O)c2c1
